# Compound activity deposited in PubChem by National Center for Advancing Translational Sciences (NCATS).
# VDR inhibitor – inhibitors of human vitamin D receptor | P11473 | VDR-SRC2-3 peptide fluorescence polarization, 2 h | Potency, µM, for inactives: max response, negative = inhibition, actives largely listed as inhibitors | actives 0.93% (n = 400,000); active = well fitted inhibition curve with a large enough effect; inconclusive = small, poorly fitted or top-dose-only effect, or another doubt; inactive = no such curve, though single readings can be large or run the other way; also: series mostly up to about 120 µM
# Target sequence (P11473 whole entry, looked up): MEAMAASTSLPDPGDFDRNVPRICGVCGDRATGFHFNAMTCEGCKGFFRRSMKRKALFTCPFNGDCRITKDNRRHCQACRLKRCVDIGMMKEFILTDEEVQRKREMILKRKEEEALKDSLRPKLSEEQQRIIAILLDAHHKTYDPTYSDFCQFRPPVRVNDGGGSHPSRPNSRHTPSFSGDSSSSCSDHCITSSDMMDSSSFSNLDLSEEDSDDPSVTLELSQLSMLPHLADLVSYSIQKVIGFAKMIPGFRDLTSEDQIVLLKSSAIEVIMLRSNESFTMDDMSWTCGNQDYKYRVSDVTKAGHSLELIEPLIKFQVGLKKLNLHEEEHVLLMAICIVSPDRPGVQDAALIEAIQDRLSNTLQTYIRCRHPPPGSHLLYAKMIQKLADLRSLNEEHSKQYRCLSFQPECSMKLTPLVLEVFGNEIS
#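 Signal is fluorescence polarization, reporting how far test compounds block the interaction of VDR with the SRC2-3 coregulator peptide after a 2 h room-temperature incubation.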
# * marks the source's active call; other numbers are inactive results; ? = inconclusive; & = joins results of further samples. % is scaled to controls: 0 for no effect and ±100 for the full control effect; potency is read from the fitted curve at half-maximal effect. An excerpt (hit frequency here may not be typical).
SMILES,VDR inhibitor
CC(=O)c1cccc(OCc2cc(C(=O)NCCC3=CCCCC3)no2)c1,-9%
O=C(CSc1nnc(CN2CCCCCC2=O)n1-c1ccccn1)NCC(F)(F)F,8%
CCN1CCN(CC(=O)Nc2nc3ccc(C)cc3s2)CC1,-19%
Cc1ccc(S(=O)(=O)NNC(=S)NC(=O)c2ccc([N+](=O)[O-])cc2)cc1,5%
Cc1ccc(C)c(Cn2c(=O)n(Cc3ccccc3)c(=O)c3c(C)c(C)sc32)c1,-6%
COc1ccc(-c2csc(Nc3ccccc3)[n+]2CC(O)c2ccc([N+](=O)[O-])cc2)cc1 (centres undefined),5%
O=S1(=O)CCC(N=Cc2cc(Br)ccc2O)C1 (centres undefined),-4%
COc1ccc(C(CNc2ccc(C(F)(F)F)cn2)N(C)C)cc1OC (centres undefined),-1%
Cc1cc(-c2nnc3sc(C4CCCCC4)nn23)n[nH]1,-14%
CC(=O)Nc1ccc(N(C(=O)Cc2c[nH]c3ccccc23)C(C(=O)NC2CCCCC2)c2ccco2)cc1 (centres undefined),-16%
O=C(/C=C/c1ccco1)NCC(=O)N/N=C/c1ccc(Cl)cc1,7%
Cc1cccc(N2CCN(C(=O)c3ccc4c(c3)CCN4S(=O)(=O)c3ccccc3)CC2)c1C,11%

# Pulled one by one from above:
SMILES,VDR inhibitor
COc1ccc(-c2csc(Nc3ccccc3)[n+]2CC(O)c2ccc([N+](=O)[O-])cc2)cc1 (centres undefined),5%
COc1ccc(C(CNc2ccc(C(F)(F)F)cn2)N(C)C)cc1OC (centres undefined),-1%

# Continued.
SMILES,VDR inhibitor
CNC(=S)NNC(=O)c1sc(-c2cc(C)on2)nc1C,-2%
COCCSc1ccccc1C(=O)Nc1cc(C)on1,-5%
CN(C)c1ccc(NC(=O)CCn2c(=S)oc3ccccc32)cc1,-1%
N#CCCN(C(=O)COC(=O)CNC(=O)c1ccc(-c2ccccc2)cc1)c1ccc(F)cc1,-4%
N#C/C(=C/C1=C(N2CCOCC2)C(=C/c2ccc(Cl)cc2)/CC1)C(=O)Nc1ccccc1F,-8%
CN1CCN(NC(=S)Nc2ccc(Oc3ccccc3)cc2)CC1,1%
CC(=O)O[C@H]1CC[C@H]2[C@@H]3CCc4cc(O)ccc4[C@H]3CC[C@]12C,-16%
CCOC(=O)C1=C(C)c2ccccc2OC1(C(=O)OCC)C(C)C (centres undefined),8%&-15%
CCOc1ccc(N(C)C(CNS(=O)(=O)c2ccccc2)c2ccccc2)cc1 (centres undefined),25%
CC(=O)Nc1ccccc1NC(=O)C/C(C)=N/NC(=O)c1ccccn1,-24%
CCc1c(C(=O)NNC(=S)Nc2ccc(S(=O)(=O)Nc3ncccn3)cc2)csc1C,-4%
CC(C(=O)NCCCc1ccccc1)n1cccc1C(=O)c1ccccc1 (centres undefined),18%
COc1cc2c(cc1OC)CN(S(=O)(=O)c1cccs1)CC2,9%
Cc1ccccc1NC(=O)c1cc2c(-c3ccccc3)nn(-c3ccccc3)c2s1,14%
Cc1cccc(OCCCCn2c(C3CC(=O)N(c4ccc(C)cc4C)C3)nc3ccccc32)c1 (centres undefined),8%
O=S(=O)(Nc1ccc(Cc2ccncc2)cc1)c1ccc(Br)cc1,6%
C=CCC1(CC=C)CCCN1C(=O)c1cc(COc2ccc(F)c(F)c2)on1,-12%
Cc1cc(S(=O)(=O)N2CCN(CC(=O)NC(C)(C#N)C3CC3)CC2)ccc1Br (centres undefined),-2%
O=c1[nH][nH]c(C(F)(F)F)c1C=Nc1ccccc1Cl,-2%
CCOC(=O)C1(Cc2cccc(OC)c2)CCN(Cc2cccc(OC)c2OC)CC1,0%
Cc1cc2cc(C(c3nnnn3Cc3ccco3)N3CCc4ccccc4C3)c(=O)[nH]c2cc1C (centres undefined),4%
N/N=C(\c1ccccc1)C12CN3CN(CN(C3)C1)C2,-14%
Cc1ccc(-n2nc(-c3ccco3)cc2C(=O)O)cc1,-5%
FC(F)(F)c1nc2ccccc2c2nc3ccccc3n12,2%
O=C(COc1cc2oc(=O)c3c(c2cc1Cl)CCC3)Nc1cccnc1,-8%
Cc1[nH]c2ccccc2c1/C=N/NC(=O)Cc1cccs1,?
COc1cc(-c2noc(CSc3nc(-c4ccc(F)cc4)cc(=O)[nH]3)n2)cc(OC)c1OC,14%
O=C(C[C@@H]1C/C=C/CC[C@@H](Cc2ccc(F)cc2)C(=O)OC[C@H](Cc2ccccc2)NC1=O)N[C@H](CO)Cc1ccccc1,-11%
Cc1cc(=O)n2c3ccccc3n(CC(O)CN3CCOCC3)c2c1C#N (centres undefined),11%
CC1Cc2ccccc2N1C(=O)CSc1nn2c(=O)c(C(C)(C)C)nnc2s1 (centres undefined),-14%
Cc1cccc(NC(=O)COc2coc(CN3CCc4ccccc4C3)cc2=O)c1,0%
CCOc1ccc(CCNC(=O)C2CCN(S(=O)(=O)CC)CC2)cc1OCC,3%
Oc1c(C(c2ccc(F)cc2)N2CCc3ccccc3C2)sc2ncnn12 (centres undefined),8%
COc1cccc(NC(=O)c2cc3c(-c4ccc(Cl)cc4)nn(C)c3s2)c1,-20%
O=S(=O)(c1cccs1)N1CCC(CO)(Cc2ccc(Cl)cc2)CC1,-18%
O=C(NCCCCc1ccccc1)c1nn(-c2ccccc2F)nc1CO,8%
O=C(COc1ccc(S(=O)(=O)N2CCCC2)cc1)N1CCCCC1,-3%
Cc1ccc(NC(=O)C(C)OC(=O)c2nc(Cl)ccc2Cl)cc1S(=O)(=O)N1CCOCC1 (centres undefined),6%
CC(C)NC(=O)Cn1c(SCC(=O)c2ccc(F)cc2)nc2ccccc21,-2%
O=C(O)c1ccc2cccnc2c1O,15%
CC(=O)Nc1ccccc1/C=C/c1ccc2c(C)ccc(O)c2n1,26%
CC(=O)Nc1ccc(Nc2ccc3cc(S(=O)(=O)N4CCCCC4)ccc3n2)cc1,11%
COc1cc2c(cc1OC)C(C)N(CC(=O)Nc1ccc(S(=O)(=O)N3CCCC3)cc1)CC2 (centres undefined),4%
O=C1/C(=C/c2ccncc2)SC(=S)N1Nc1ccccc1,50µM*
O=C(O)c1cc(S(=O)(=O)N2CCCCC2)sc1Cl,-10%
CC(OC(=O)CN1C(=O)c2ccccc2C1=O)C(=O)NC1CCCCC1 (centres undefined),5%
Cc1cc(C)c(N(C(=O)Cn2nnc3ccccc32)C(C(=O)NC(C)(C)C)c2ccsc2)c(C)c1 (centres undefined),4%
COc1ccc(NC(=O)CCc2nnc3ccc(N4CCC(C)CC4)nn23)cc1,-1%
c1ccc(-n2cnnc2SCc2cn3cccnc3n2)cc1,-2%
COc1ccc(NC(=O)CSc2nncn3c2cc2occc23)c(OC)c1,0%
CCc1ccccc1Nc1nn2c(=O)c3ccc(C(=O)NCCCOC(C)C)cc3nc2s1,2%
CCOC(=O)C1CCN(C(=O)CNC(=O)c2nn(-c3ccc(OC)c(OC)c3)c(=O)c3ccccc23)CC1,5%
CCc1cc(=O)oc2cc(OCC(=O)N(CC)CC)c(Cl)cc12,-8%
COc1ccc(OC)c(NC(=O)C(=O)N/N=C(\C)CC(=O)Nc2ccc(Cl)cn2)c1,-12%
C#CCNC(=O)C1=C[C@@H](c2ccccc2)C[C@@H](OCc2ccc(CO)cc2)O1,-8%
CC(C)CC1(C2CCCC2)NC(=O)NC1=O (centres undefined),8%
Cc1c(C)n2c(SCC(=O)NC3CCCC3)nnc2[nH]c1=O,5%
COc1ccc(-c2csc(NC(=S)NC(=O)c3cc4ccccc4o3)n2)cc1Br,1%
CC(c1ccccc1)N1C(=O)c2ccc(C(=O)NCc3ccco3)cc2C1=O (centres undefined),22%
Cc1cccc(C)c1-n1nnnc1C(C)(C)N1CCN(N=O)CC1,0%

# Remaining list, next part:
SMILES,VDR inhibitor
O=C(c1ccco1)N1C(=O)c2cccc3cccc1c23,-5%
COc1cc2ccccc2cc1C(=O)N1CCN(c2nc3c(C)cc(C)cc3s2)CC1,-4%
COc1cc(OC)cc(C(=O)NNC(=O)c2ccc(S(=O)(=O)N(C)c3ccccc3OC)cc2)c1,7%
COc1ccc(OC)c(/C=N/NC2=NS(=O)(=O)c3ccccc32)c1,13%
O=C1N/C(=C/c2cccn2-c2ccc(F)cc2)C(=O)N1Cc1ccccc1,-9%
CC1(OC(=O)CCc2ccccc2)C(=O)C=C2C=C(c3ccc(C#N)cc3)N(Cc3ccco3)C=C2C1=O (centres undefined),-13%
CCOc1ccccc1OCCC(=O)OCC(=O)c1ccc[nH]1,?
CCOc1ccc(OCC)c(NC(=O)CCCN2C(=S)NC(C)(C)CC2C)c1 (centres undefined),-10%
Cc1cccc(C2c3[nH]c4ccccc4c3CCN2C(=O)c2cn(C)c3ccccc3c2=O)n1 (centres undefined),-29%
Cc1nc(-c2ccc(Cl)cc2)sc1C1(C)CC(c2cccc(Cl)c2)=NO1 (centres undefined),-7%
Cc1ccc(C(=O)Oc2cc(-c3ccc4c(c3)OCO4)cc(=O)c3c(C)oc(C)c23)cc1,-11%
CCC1CN(C(=O)N2CCC(C(=O)N(C)Cc3ccccc3)CC2)c2ccccc2O1 (centres undefined),6%
Cc1ccc(NC(=O)CSc2nnc(-c3cccs3)n2Cc2ccco2)cc1,6%
CN(CC(=O)Nc1ccccc1C(F)(F)F)C(=O)CN1C(=O)C2CCCCC2C1=O (centres undefined),-17%
Cc1c(Nc2cc(Cl)c3nonc3c2[N+](=O)[O-])c(=O)n(-c2ccccc2)n1C,?
O=C(CN1C(=O)c2ccccc2C1=O)NCCOc1ccccc1,3%
CN(C(=O)C1CCCO1)c1nnc(-c2ccncc2)s1 (centres undefined),-10%
N#Cc1c(-c2ccccc2)nc(SCC(=O)NC2CCCCC2)[nH]c1=O,7%
COc1ccccc1CNC(=O)C(c1ccccc1)c1ccccc1,-1%
CCCc1cc(=O)oc2cc(OCc3cccc(OC)c3)c(Cl)cc12,-14%
COc1cc(OC)cc(-c2c(C#Cc3ccsc3)c3cc(-c4ccc(OC)cc4F)ccc3n2C)c1,-11%
Cc1cn([C@H]2C[C@H](N=[N+]=[N-])[C@H](CO)O2)c(=O)[nH]c1=O,8%
NC(=O)COC(=O)c1ccc(S(=O)(=O)N2CCCCCC2)cc1,-17%
CCOC(=O)N=S(N)(=O)c1ccc(Cl)cc1 (centres undefined),-4%
COc1ccc(CNC(=O)Nc2cccc(C)c2)cc1,-7%
O=C(CNC(=O)C1(c2ccccc2)CC1)Nc1ccc(F)c(F)c1,-7%
COc1ccc(NC(=S)NC(=O)c2ccc3c(c2)OCCO3)cc1,-27%
CN(C)c1nc(-c2ccccc2)ns1,3%
COc1cccc(CC2(CO)CCCN(Cc3ccc(C)s3)C2)c1 (centres undefined),4%
CC1(C)Cc2nc3oc4c(=O)n(CC(=O)Nc5ccc(Cl)cc5)cnc4c3cc2CO1,-1%
O=C(NCCc1ccc(OC(F)F)cc1)C1CC(=O)N(c2ccc3c(c2)OCCO3)C1 (centres undefined),7%
N#Cc1ccccc1COC(=O)c1cccc(S(=O)(=O)N2CCCC2)c1,0%
CC(C)CC(O)C1CCN(C(=O)CCc2nnc(-c3ccccc3)o2)CC1 (centres undefined),-12%
O=C(Nc1nnc(-c2ccco2)s1)C1CCCCC1,3%
CCCn1c(SCC(=O)Nc2cc(S(=O)(=O)N(C)C)ccc2OC)n[nH]c1=O,-1%
Cc1cc(NC(=O)CCC(=O)N(CC(=O)NC2CCCC2)c2ccc(C)c(F)c2)no1,2%
Cn1cccc1Cc1nnc(SCC(=O)NCc2ccc(F)cc2)n1-c1ccc(F)cc1,-24%
C[N+](C)(C)CC=O,9%&-2%
C=CCOc1ccc(/C=C2\SC(=S)N(NS(=O)(=O)c3ccccc3)C2=O)cc1,?
O=C(c1ccc2c(c1)OCO2)C1CCCN(C(=O)c2cnn(Cc3ccccc3)c2)C1 (centres undefined),-2%
O=C(COc1ccc(S(=O)(=O)NC2CCCC2)cc1)NCC1CCCO1 (centres undefined),-8%
CC(C)(C)OC(=O)N[C@@H](Cc1ccccc1)[C@H](O)c1ccco1,-16%
CCOc1ccccc1C1C(C(=O)Nc2ccccc2OC)=C(C)Nc2nc(CCCO)nn21 (centres undefined),-6%
Cc1c(C)c2ccc(OCC(=O)Nc3cccnc3)c(C)c2oc1=O,0%
CC(C(=O)NCc1ccc2c(c1)OCO2)c1ccc([N+](=O)[O-])cc1 (centres undefined),-18%
CCN(CC)CCCNC(=O)CC1Oc2ccc(C)cc2NC1=O (centres undefined),13%
COc1cc([N+](=O)[O-])ccc1NC(=O)Nc1ccc(C(=O)N2CCCC2)cc1,-7%
COc1ccc(S(=O)(=O)N/N=C\c2ccc3c(c2)OCO3)cc1,14%
Cc1ccc(CN(C(=O)COc2ccc(Br)cc2)c2ccccn2)o1,3%

# Structural class, the compounds so far with a furan ring, fused or not.
SMILES,VDR inhibitor
CC(=O)Nc1ccc(N(C(=O)Cc2c[nH]c3ccccc23)C(C(=O)NC2CCCCC2)c2ccco2)cc1 (centres undefined),-16%
O=C(/C=C/c1ccco1)NCC(=O)N/N=C/c1ccc(Cl)cc1,7%
Cc1cc2cc(C(c3nnnn3Cc3ccco3)N3CCc4ccccc4C3)c(=O)[nH]c2cc1C (centres undefined),4%
Cc1ccc(-n2nc(-c3ccco3)cc2C(=O)O)cc1,-5%
COc1ccc(NC(=O)CSc2nncn3c2cc2occc23)c(OC)c1,0%
COc1ccc(-c2csc(NC(=S)NC(=O)c3cc4ccccc4o3)n2)cc1Br,1%
CC(c1ccccc1)N1C(=O)c2ccc(C(=O)NCc3ccco3)cc2C1=O (centres undefined),22%
O=C(c1ccco1)N1C(=O)c2cccc3cccc1c23,-5%
CC1(OC(=O)CCc2ccccc2)C(=O)C=C2C=C(c3ccc(C#N)cc3)N(Cc3ccco3)C=C2C1=O (centres undefined),-13%
Cc1ccc(C(=O)Oc2cc(-c3ccc4c(c3)OCO4)cc(=O)c3c(C)oc(C)c23)cc1,-11%
Cc1ccc(NC(=O)CSc2nnc(-c3cccs3)n2Cc2ccco2)cc1,6%
CC1(C)Cc2nc3oc4c(=O)n(CC(=O)Nc5ccc(Cl)cc5)cnc4c3cc2CO1,-1%
O=C(Nc1nnc(-c2ccco2)s1)C1CCCCC1,3%
CC(C)(C)OC(=O)N[C@@H](Cc1ccccc1)[C@H](O)c1ccco1,-16%
Cc1ccc(CN(C(=O)COc2ccc(Br)cc2)c2ccccn2)o1,3%
